# GIV-Gai inh – GIV-Galpha-i interaction inhibition; percent of control (FP), % (no concentration beside the values); Galpha-i3/FITC-GIV peptide fluorescence polarization, 90 min; stronger effect = lower value; scaled: aluminum fluoride 0%, vehicle 100%; hit rate 0.42% among 210,000; AID 1224905; P08753;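 active = replicate mean at 85% of control or lower, very high polarization wells dropped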;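 also: wells of about 15 µL received 100 nL stock; the first replicate is given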
# Target sequence (P08753 whole entry, looked up): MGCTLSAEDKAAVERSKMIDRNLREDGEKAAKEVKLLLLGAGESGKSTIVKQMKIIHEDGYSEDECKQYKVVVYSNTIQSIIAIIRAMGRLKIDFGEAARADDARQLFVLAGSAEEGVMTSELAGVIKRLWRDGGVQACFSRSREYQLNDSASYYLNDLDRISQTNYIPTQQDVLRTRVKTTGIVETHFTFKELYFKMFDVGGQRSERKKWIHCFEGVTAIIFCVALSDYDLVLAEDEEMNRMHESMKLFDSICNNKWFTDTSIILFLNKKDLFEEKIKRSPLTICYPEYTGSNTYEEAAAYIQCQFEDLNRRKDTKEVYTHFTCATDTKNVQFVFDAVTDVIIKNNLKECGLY
# The depositor's hits bear a star. Not all compounds are listed, so the mix of outcomes need not match the whole.
SMILES,GIV-Gai inh
Cc1nnc(-c2coc(S(=O)(=O)N3CCCC(C)C3)c2)o1 (configuration not stated),106
O=C(Nc1ccc2c(c1)OCO2)Nc1nccn(-c2ccc(F)cc2)c1=O,99
CC(=O)C1=NN(c2ccc([N+](=O)[O-])cc2)C2(S1)SC(c1ccccc1)(c1ccccc1)c1ccccc12 (configuration not stated),106
C=CCOc1ccccc1C(c1c(C)[nH]n(-c2ccccc2)c1=O)c1c(C)[nH]n(-c2ccccc2)c1=O,96
CCN1c2cc(Cl)ccc2C(=O)NC12CCN(C(=O)Nc1ccc3c(c1)OCO3)CC2,93
COc1cc(/C=C2/C(=O)N(c3ccccc3)N=C2C)ccc1OCC(=O)Nc1ccc(Br)c(Cl)c1,110
COc1ccc(C2CC(C(F)(F)F)n3ncc(C(=O)Nc4sc5c(c4C#N)CCC(C)C5)c3N2)cc1OC (configuration not stated),119
O=S(=O)(c1ccc(Cl)s1)N1CCCCCC1c1cccs1 (configuration not stated),100
O=C1NCCN1Cc1ccc(F)cc1,102
Cc1ccc(C)c(S(=O)(=O)N2CCC3(CC2)NCCN=C3NCc2ccc(F)cc2)c1,103
CCCN(CCC)CC(=O)C12CC3CC(C1)CC(c1ccc(C)cc1)(C3)C2,109
O=C(c1ccc2c(=O)n(Cc3ccc(Cl)cc3)c(=S)[nH]c2c1)N1CCN(c2ncccn2)CC1,110
COc1ccc(C2C(C#N)=C(N)Oc3n[nH]c(C)c32)c(OCc2ccccc2Cl)c1 (configuration not stated),108
c1ccc2c(N3CCN(c4ncnc5ccccc45)CC3)ncnc2c1,105
COP(=O)(OC)C(Nc1cccc2ccccc12)c1ccc(Br)cc1 (configuration not stated),99

# Continued; it opens with the 6 that closed the last part.
SMILES,GIV-Gai inh
Cc1ccc(C)c(S(=O)(=O)N2CCC3(CC2)NCCN=C3NCc2ccc(F)cc2)c1,103
CCCN(CCC)CC(=O)C12CC3CC(C1)CC(c1ccc(C)cc1)(C3)C2,109
O=C(c1ccc2c(=O)n(Cc3ccc(Cl)cc3)c(=S)[nH]c2c1)N1CCN(c2ncccn2)CC1,110
COc1ccc(C2C(C#N)=C(N)Oc3n[nH]c(C)c32)c(OCc2ccccc2Cl)c1 (configuration not stated),108
c1ccc2c(N3CCN(c4ncnc5ccccc45)CC3)ncnc2c1,105
COP(=O)(OC)C(Nc1cccc2ccccc12)c1ccc(Br)cc1 (configuration not stated),99
Cc1cn(-c2nc(-c3ccccc3)oc2-c2ccccc2)c(=O)nc1NCCO,105
Cc1ccc(C(=O)c2sc3nc4c(c(-c5ccco5)c3c2N)CCC4)cc1,107
CC(C)CNC(=O)CCn1c(=O)c2ccccc2n2c(SCC(=O)NCC3CCCO3)nnc12 (configuration not stated),99
CCCc1cc(C2CCCN2Cc2ccc(OC)c(CN3CCOCC3)c2)no1 (configuration not stated),104
CC(C)n1c(N2CCCN(C(=O)c3n[nH]c4c3CCCC4)CC2)cc(=O)n(C(C)C)c1=O,98
Cc1cccc(NC(=O)c2sc3nc(C)nc(N4CCOCC4)c3c2C)c1,102
CCCCCCCOc1ccc(C(=O)Oc2cccc(OC(=O)c3ccc(OCCCCCCC)cc3)c2)cc1,102
CC1(C)CC(=O)C2=C(C1)Nc1ccccc1N(C(=O)NC1CCCC1)C2c1ccc(F)cc1 (configuration not stated),101
Cc1ccc(S(=O)(=O)NC(C)c2nc(-c3ccc4c(c3)ncn4C)no2)cc1 (configuration not stated),101
CN(C)C(=O)c1ccc2c(c1)nc(CN1CCN(C(=O)c3ccccc3Br)CC1)n2C,105
CCCCNC(=O)CSc1nc2ccccc2n1S(=O)(=O)c1ccc(C)cc1,111
CCN1CCN(S(=O)(=O)c2cc(-c3nnc(C)o3)co2)CC1,107
COc1ccc(Oc2ccnc(-c3ccc(C(=O)NCC4CCCO4)cc3)n2)cc1 (configuration not stated),106
CSC1=NC(=Nc2cccc(C)c2)C2(CCCCC2)N1c1ccc(I)cc1,100
Cn1c(=O)c2[nH]c(SCC(=O)c3ccccc3OC(F)F)nc2n(C)c1=O,103

# 4 entries from above in a different format.
GIV-Gai inh,SMILES
110,COc1cc(/C=C2/C(=O)N(c3ccccc3)N=C2C)ccc1OCC(=O)Nc1ccc(Br)c(Cl)c1
119,COc1ccc(C2CC(C(F)(F)F)n3ncc(C(=O)Nc4sc5c(c4C#N)CCC(C)C5)c3N2)cc1OC (configuration not stated)
100,O=S(=O)(c1ccc(Cl)s1)N1CCCCCC1c1cccs1 (configuration not stated)
102,O=C1NCCN1Cc1ccc(F)cc1

# (list continues)
SMILES,GIV-Gai inh
c1cc(CNc2ncnc3c2CCC3)ccn1,101
NS(=O)(=O)c1ccc(CCNC(=O)CSc2nc3ccccc3c(=O)n2CC2CCCO2)cc1 (configuration not stated),100
CCCCn1c(C)c(CC(Cl)(Cl)Cl)c2c1CC(C)(C)CC2=O,112
CC(=O)Oc1ccc(/C=C2N=C(/C=C/c3ccc(Cl)cc3Cl)OC\2=O)c(OC(C)=O)c1,104
O=C(CNS(=O)(=O)c1cc(-c2noc(C3CCC3)n2)cs1)Nc1cccc(Cl)c1,103
O=C(CSc1nc2ccccc2c2nc(CCc3c[nH]c4ccccc34)nn12)c1ccc(F)cc1,109
CCC(C)NC(=O)c1ccc2c(c1)nc(C)n2-c1ccc(Br)cc1 (configuration not stated),108
O=C(COc1ncnc2onc(-c3ccc(F)cc3)c12)NCc1ccc(F)cc1,103
CCN(CC)CCNC(=O)c1ccc(Cn2c(=S)[nH]c3ccc(Br)cc3c2=O)cc1,114
O=C(COC(=O)c1cccc(N2C(=O)C3C4C=CC(C4)C3C2=O)c1)c1cccc([N+](=O)[O-])c1 (configuration not stated),117
COC(=O)c1c(C)oc2ccc(N(C(=O)c3ccccc3)S(=O)(=O)c3cccc([N+](=O)[O-])c3)cc12,104
CCOc1ccc(-c2csc(NC(=O)CS(=O)(=O)c3ccc(Cl)cc3)n2)cc1,107
O=C(Nc1sc2c(c1C(=O)Nc1ccccc1Cl)CCCCC2)c1ccccc1F,112
Cn1nnc2c(Nc3ccc(F)c(F)c3)ncnc21,104
O=C(COc1ccc(Cl)cc1Cl)NCc1nnc(SCC(=O)N2CCc3ccccc32)n1-c1ccc(F)cc1,109
COc1ccc2c(c1)-c1c(ssc1=S)C(C)(C)N2C(=O)CN1CCCCC1,105
Cc1ccc(-c2nc3ccc(C(=O)O)cc3nc2-c2ccc(C)cc2)cc1,106
O=S(=O)(c1cn(Cc2noc(-c3cccc(Br)c3)n2)cn1)N1CCOCC1,100
CCCS(=O)(=O)c1nc2ccc(NS(=O)(=O)c3cc(F)ccc3F)cc2s1,106
CC(C)c1cc(C2CCCN2C(=O)c2cccs2)no1 (configuration not stated),98
COc1ccc(NC(=O)CC2CCN(S(=O)(=O)c3ccc4c(c3)oc(=O)n4C)CC2)cc1OC,105
COc1ccc(C2=NN(C(=O)c3ccc(Br)o3)C(c3ccccc3Cl)C2)cc1OC (configuration not stated),120
Cc1c(C(=O)N2CCN(c3ccccn3)CC2)sc2ncnc(N(C)c3ccccc3)c12,101
Cc1nc(N2CCC(C)CC2)c2c(C)c(C(=O)Nc3cnc4ccccc4c3)sc2n1,105
Cc1ccc(CSc2nc3ccccc3c(=O)n2Cc2ccco2)cc1,111
O=C(NCCN1CCCc2ccccc21)c1c(O)c2c3c(sc2[nH]c1=O)CCCC3,105
C=CCSC1=NC2(CC(c3ccccc3)c3c(C)cc(O)cc3O2)CC(C)(C)N1 (configuration not stated),107
O=S(=O)(c1cccn2c(SCc3ccccc3F)nnc12)N1CCCC1,105
CC1Cc2ccccc2N1S(=O)(=O)c1ccc2c(c1)c(=O)n(CCC(=O)N1CCCC1)c(=O)n2C (configuration not stated),106
NS(=O)(=O)c1ccc(CCNC(=O)c2nc(CS(=O)(=O)c3ccccc3)no2)cc1,103
Fc1ccc(-c2csc(=Nc3cccc(C(F)(F)F)c3)n2CCc2ccccc2)cc1,106
O=C1C2C3c4ccccc4C(C=Nc4cccc(Cl)c4Cl)(c4ccccc43)C2C(=O)N1c1ccccc1Cl (configuration not stated),114
CCc1ccc(NC(=O)COc2nc(CC)nc3ccccc23)cc1,101
O=c1ccc(-c2ccc3c(c2)OCO3)nn1CCc1nc(-c2ccc(F)cc2)no1,104
Cc1nn(-c2ccccc2)c(N2CCC(C(=O)NCc3ccccc3)CC2)c1-n1c(C)ccc1C,112
CCOC(=O)C1=c2s/c(=C\c3ccccc3)c(=O)n2C(N)=C(C(=O)OC)C1c1ccccc1 (configuration not stated),112
O=C(CCS(=O)(=O)c1ccc(Cl)cc1)Nc1nc(-c2ccccn2)cs1,103
CC(=O)N1CCC(=O)c2cc(Br)ccc21,102
NC(=O)Cn1cnc2c(-c3ccc(F)cc3)nsc2c1=O,105
N#CC1=C(N)C(C#N)(C#N)C(c2ccncc2)C2CCCC=C12 (configuration not stated),106
COC(=O)CN1C(=O)C2(OCCCO2)c2cc(Br)ccc21,107
COC(=O)c1ccc2c(=O)n(Cc3ccc(C)cc3)c(N3CCSC3)nc2c1,102
O=C(NCCc1ccc(Cl)cc1)C1CCN(c2ncnc3c2oc2ccccc23)CC1,107
O=C(NCc1ccco1)C1CCN(c2cnc(N3CCCC3)nc2)CC1,92
Cc1nc(-c2cccc(S(=O)(=O)Nc3cccnc3)c2)no1,105
O=S(=O)(c1cc(-c2nnc(C3CC3)o2)co1)N1CCC(Cc2ccccc2)CC1,101
COC(=O)c1ccccc1NC(=O)N1CCN(Cc2cc(=O)n3nc(-c4ccccc4)sc3n2)CC1,100
O=C(c1cn2c(n1)COCC2)N1CCC2(CC1)OCCO2,100
CCOC(=O)CCNC(=O)N1CCCC1c1cc(C(C)C)on1 (configuration not stated),103
O=C(NC1CCCCC1)C1CCCN(S(=O)(=O)c2cc(-c3noc(C4CCCC4)n3)cs2)C1 (configuration not stated),104
Cc1ccc(SCC(=O)Nc2nnc(CCS(=O)(=O)c3ccc(C)cc3)s2)cc1,107
O=C(Cn1nc2c3sccc3ncn2c1=O)Nc1ccccc1,105
CC(C)c1ccc(N2C(=O)CSC23C(=O)N(CN2CCOCC2)c2ccccc23)cc1 (configuration not stated),107
COc1ccccc1/C=C/C1=NC(=C\c2cc(Br)c(OC(C)=O)c(OC)c2)/C(=O)O1,105
COc1cccc(CN=C2Nc3ccccc3NC23CCCCCC3)c1,99
CCOc1cccc2c1OC(c1ccc(OC)c(OC)c1)N1N=C(c3cccc(OC)c3)CC21 (configuration not stated),101
COc1cc2nc(NC(=O)c3ccc4c(c3)OCCO4)sc2cc1OC,105
COc1cccc(NC(=O)c2cn(-c3cc(-c4noc(C)n4)ccc3C)nc2C)c1,98
O=C(COC(=O)c1cccc(N2C(=O)C3C4C=CC(C4)C3C2=O)c1)c1ccc(Cl)cc1 (configuration not stated),101
Cc1cccc(OCC(=O)Nc2ccccc2-c2ccc3cc(C)ccc3n2)c1,106

# (further entries)
SMILES,GIV-Gai inh
O=S(=O)(c1ccc(F)c(F)c1)N1CCC(c2noc(-c3ccccc3)n2)CC1,102
CCOC(=O)C1=C(O)/C(=C/c2ccc([N+](=O)[O-])cc2)SC1=Nc1cccc(Cl)c1,112
Cn1nc(-c2nc(C3CC3)no2)c2c1CCN(C(=O)c1ccc(Cl)s1)C2,99
O=C1N(Cc2cccc3ccccc23)c2ccccc2C12NN=C(c1ccccc1)S2 (configuration not stated),109
COC(=O)C1=C(C(=O)OC)SC(=C2C(=S)C(C)(C)N(C(=O)c3ccccc3I)c3cc(OC)ccc32)S1,106
COc1cc(-c2[nH]nc3c2C(c2cc4c(cc2Br)OCO4)C(C#N)=C(N)O3)cc(OC)c1OC (configuration not stated),109
CCCCC(=O)Nc1ccc(N(CC)CCN(C)C)c(C(=O)O)c1,106
Cc1cc(C)cc(-n2ncc3c(N4CCN(CCO)CC4)ncnc32)c1,94
CCN1CCCC1CNC(=O)c1cc2nc(-c3ccc(OC)c(OC)c3)cc(C(F)(F)F)n2n1 (configuration not stated),108
CCOC(=O)c1[nH]c2ccc(OC)cc2c1NC(=O)CNc1nccs1,107
CCOc1cc(C(=O)Nc2cc(-c3nc4cc(C)ccc4o3)ccc2Cl)cc(OCC)c1OCC,102
CCCc1ccc(OCC(=O)Nc2sc3c(c2C#N)CCCCC3)cc1,111
Cc1cc(C)c(NC(=O)COc2cccc3c(=O)n(C)ccc23)c(C)c1,102
CCC(=O)N1CCc2sc(C(=O)NC3CC3)cc2C1,97
CCOC(=O)C1=C(C(=O)OCC)SC(=C2C(=S)C(C)(C)N(C(=O)Cc3ccccc3)c3ccc(OCC)cc32)S1,107
CCc1ccc(NC(=O)CSC2=C(C#N)C(c3ccco3)C(C(=O)Nc3ccc(Cl)cc3)=C(C)N2)cc1 (configuration not stated),107
O=C(Nc1cccc(F)c1)N1CCN(Cc2cc(=O)n3nc(-c4ccccc4F)sc3n2)CC1,100
CSc1ccc(Cl)c(C(=O)Nc2ccc3c(c2)N(C(C)=O)c2ccccc2CC3)c1,103
CCOC(=O)C1=C(C)NC2=C(C(=O)C(C(=O)OCC)C(c3cccc(OC)c3)C2)C1c1cccc(OC)c1OC (configuration not stated),103
CCS(=O)(=O)CCSc1nc(-c2cccs2)cc(-c2ccccc2)c1C#N,106
O=[N+]([O-])c1ccc(N2CCN(c3ncnc4scc(-c5ccccc5)c34)CC2)cc1,102
C1=C(c2ccccc2)N2c3ccccc3NC2(c2ccccc2)CC1c1ccccc1 (configuration not stated),108
COC(=O)C1=C(C(=O)OC)SC(=C2C(=S)C(C)(C)N(C(=O)COc3ccc(Cl)cc3)c3ccc(OC)cc32)S1,101
COc1ccc(-c2csc(Nc3ccc(Br)cn3)n2)cc1,101

# Arranged by number of heavy atoms (ascending): part of the list above.
SMILES,GIV-Gai inh
COc1ccc(-c2csc(Nc3ccc(Br)cn3)n2)cc1,101
CCc1ccc(NC(=O)CSC2=C(C#N)C(c3ccco3)C(C(=O)Nc3ccc(Cl)cc3)=C(C)N2)cc1 (configuration not stated),107
CCOC(=O)C1=C(C)NC2=C(C(=O)C(C(=O)OCC)C(c3cccc(OC)c3)C2)C1c1cccc(OC)c1OC (configuration not stated),103
